Assay outcomes from PubChem BioAssay.
MenB inh: Mtb MenB enzyme inhibition | hit rate 0.43% among 100,000 | P9WNP5 | MenB enzyme assay, absorbance read-out; some hits fall short of the stated cut | inhibition, %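 (about 12 µg/mL by stock and volumes)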;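 active = mean of two replicates above 30%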;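 also: 0% = no compound and 100% = wells with inactive enzyme; the first replicate is given; strong numbers were not always called active; inactives centre near -10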
Target sequence (P9WNP5 whole entry, looked up): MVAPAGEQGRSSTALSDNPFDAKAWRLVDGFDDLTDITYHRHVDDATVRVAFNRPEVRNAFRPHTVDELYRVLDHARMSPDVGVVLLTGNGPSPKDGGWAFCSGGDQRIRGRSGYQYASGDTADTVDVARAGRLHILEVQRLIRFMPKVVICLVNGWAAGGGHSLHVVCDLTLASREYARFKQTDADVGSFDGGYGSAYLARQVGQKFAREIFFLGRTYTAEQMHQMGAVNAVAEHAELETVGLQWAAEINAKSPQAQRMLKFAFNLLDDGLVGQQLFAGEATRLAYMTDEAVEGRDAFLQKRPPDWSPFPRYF
Mtb MbtI inh: MbtI salicylate synthase inhibition | hit rate 0.89% among 100,000 | P9WFX0 | purified MbtI enzyme, fluorescence intensity read-out | inhibition, %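 (about 17 µg/mL by stock and volumes)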 | AID 493033;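 active = above 50% in both replicates, above 80% if mildly self-fluorescent; inactive = the rest, strongly fluorescent compounds included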;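 also: 0% = mean of negative and 100% = mean of positive controls; one replicate is shown; some compounds called inactive have numbers as strong as hits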
PV pol inh: poliovirus RNA polymerase inhibition. hit rate 0.66% among 150,000. poliovirus polymerase elongation, fluorescence polarization; hits give low values. P03300. % elongation, % (compound at 16.7 µg/mL); in the data active = % elongation below about 90%; also: some results filed as inactive read as strong as hits
Target sequence (P03300 1749-2209 limits assumed): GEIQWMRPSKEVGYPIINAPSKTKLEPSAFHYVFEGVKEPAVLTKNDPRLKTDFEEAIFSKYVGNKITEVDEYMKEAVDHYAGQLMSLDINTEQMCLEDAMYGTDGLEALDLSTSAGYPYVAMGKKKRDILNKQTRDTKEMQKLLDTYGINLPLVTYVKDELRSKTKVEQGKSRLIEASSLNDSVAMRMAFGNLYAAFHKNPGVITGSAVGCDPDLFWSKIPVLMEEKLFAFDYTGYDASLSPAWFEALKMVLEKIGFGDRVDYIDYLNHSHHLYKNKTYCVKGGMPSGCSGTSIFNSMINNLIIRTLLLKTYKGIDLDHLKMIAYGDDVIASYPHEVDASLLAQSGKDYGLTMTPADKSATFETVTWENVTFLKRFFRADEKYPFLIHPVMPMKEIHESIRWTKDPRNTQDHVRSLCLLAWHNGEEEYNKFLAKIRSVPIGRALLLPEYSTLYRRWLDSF
PV pol inh intensity: also measured in PV pol inh; calls as there; % elongation; measured here: total intensity read-out; formula for this scale not given here;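 total fluorescence in place of polarization; lower means less elongation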
Numbers without * were called inactive; . = no result given; & = joins results of further samples.

SMILES	MenB inh	Mtb MbtI inh	PV pol inh	PV pol inh intensity
O=C(CN(C(=O)c1ccc(Cl)nc1)C1CCCC1)NCc1ccc2c(c1)OCO2	21	-1	99	102
O=C(Nc1cccc(Cl)c1)Nc1ccccn1	-3	27	101	103
CC1CCN(C(=O)c2ccc3c(=O)nc4c(-c5ccccc5)n[nH]n4c3c2)CC1	-2	-3	102	108
c1ccc2c(c1)CC(CN1CCCCC1)O2 (stereo not drawn)	1	.	107	103
COc1ccc(-n2nnc3c(SCC(=O)N4CCc5ccccc54)ncnc32)cc1	-8	2	106	105
CCOc1ccc(S(=O)(=O)N(CC)CC(=O)NCc2cccnc2)cc1C	8	-2	103	104
Nc1ccncc1	5&-4	2&-15	102&101&100	101&101&102
NS(=O)(=O)c1ccc(NC(=O)CSCc2ccccc2)cc1	-18	-16	103	107
O=C1CCCC/C1=C\Nc1nc(-c2ccccc2)cs1	.	-9	104	107
O=C(Nc1ccc2c(c1)OCCO2)Nc1cccs1	10	-2	107	108
O=C(CCCCN1CCCCC1)c1ccccc1	-3	.	103	96
CC(=O)Nc1ccc(OCC(=O)Nc2cc(F)ccc2C)cc1	-16	-12	103	106
Cc1ccc(S(=O)(=O)N2CCCCCC2)cc1C	-15	-6	99	95
CCOC(=O)N1CCN(C(=O)CC2C(=O)N(Cc3ccccc3)C(C)c3nc4ccccc4n32)CC1 (stereo not drawn)	-2	0	100	102
O=C(Nc1ccc2nc(C3CC3)n(Cc3ccccc3)c(=O)c2c1)C1CC1	33*	10	101	103
CCOC(=O)c1cc(-c2ccc(C#N)cc2)nc2c1c(C)nn2CCC#N	-22	157	96	96
Cc1ccc2c(=O)c(CN3CCCC3)c(C)[nH]c2c1C	1	2	100	102
O=c1oc2ccccc2n1-c1nc2ccccc2o1	-12	-7	100	103
CN1c2ccccc2Oc2nnc(NCc3ccccc3)cc21	-21	-62	103	97
NC(=O)CNC(=O)c1cccc(Cl)c1	-2	.	107	104

Reformatted in CSV form: entries from further up.
mol,MenB inh,Mtb MbtI inh,PV pol inh,PV pol inh intensity
O=c1oc2ccccc2n1-c1nc2ccccc2o1,-12,-7,100,103
NC(=O)CNC(=O)c1cccc(Cl)c1,-2,.,107,104
NS(=O)(=O)c1ccc(NC(=O)CSCc2ccccc2)cc1,-18,-16,103,107

(cont.)
SMILES	MenB inh	Mtb MbtI inh	PV pol inh	PV pol inh intensity
COC(=O)c1ccc(NC(=O)c2ccc(C)cc2)cc1	14	7	100	100
Cc1nc2c(c(C)nn2C)c(C)c1CCC(=O)NCCc1ccccc1	-4	27	103	104
CN1C(C(=O)N2CCN(Cc3ccccc3)CC2)=CC(c2ccc(F)cc2)=NS1(=O)=O	-23	0	103	102
N#C/C(C(=O)N1CCCCC1)=C1/Nc2ccccc2S1	-25	87	.	.
COc1ccc(NCC(=O)Nc2ccc(F)cc2)cc1	-38	0	101	99
O=C(Cn1cc(S(=O)(=O)Cc2ccccc2)c2ccccc21)N1CCCC1	-2	-17	100	103
CCC(=O)Nc1ccccc1-c1ccccc1NC(=O)CC	3	.	102	100
C/C(N)=C(/C#N)C(=O)CSCc1ccccc1C	11	16	106	100
COc1ccc(-c2nc(SCC(=O)N3CCC(c4ccccc4)=N3)n[nH]2)cc1	-1	-6	98	109
CCn1cc(C(=O)OCC(=O)OC2CC(C)CCC2C(C)C)c(=O)c2ccc(C)nc21 (stereo not drawn)	-33	7	97	97
Cc1ccc(C(=O)N(C)Cc2ccccc2)cc1	14	6	98	99
CC(C)(C)NC[C@H](O)COc1cccc2c1CCCC2=O	-7	-7	101	101
O=C(Oc1ccc(N(C(=O)c2ccccc2)S(=O)(=O)c2cccs2)cc1)c1ccccc1	-14	.	110	120
CC(NC(=O)Cn1c(-c2cccs2)cc2ccccc21)c1ccccc1 (stereo not drawn)	0	30	103	106
Cc1noc(C)c1C(=O)NCCCc1ccccc1	8	-13	101	104
CC(C)OC(=O)CSc1nc2cccnc2n1C1CCCCC1	-43	-4	106	101
O=C(NC(=S)Nn1cnnc1)C1CCCCC1	-52	5	102	105
OC1(C#CCN2CCOCC2)CCCCC1	5	-5	98	102
FC(F)(F)c1cccc(N2CCN(C3CCCCCC3)CC2)c1	-44	-28	101	101
O=C(CSc1ccc(-c2ccccc2)nn1)NCC1CCCO1 (stereo not drawn)	-32	12	102	109
S=C(NCCN1CCCCC1)NCC1CCCO1 (stereo not drawn)	-17	-5	101	102
CC1CC(C)CN(S(=O)(=O)c2ccc(NN)nc2)C1 (stereo not drawn)	7	12	103	106
O=C(NNc1ncnc2ccccc12)c1ccc(O)cc1	-17	7	99	105
CN1C(=O)/C(=C/c2cn(CC(=O)O)c3ccccc23)c2ccccc21	-238	22	101	101
COc1cc(NC(=O)NCCN2CCCc3ccccc32)cc(OC)c1OC	-1	-1	100	102
Cc1cccc(NC(=O)c2cc3ccc(O)cc3oc2=O)c1	-97	-12	99	104
Cc1ccc(-c2cc(C(=O)N3CCC4(CC3)OCCO4)c3ccccc3n2)o1	-4	-15	102	109
CCN(CC)S(=O)(=O)c1ccc2c(c1)nc(SCC(=O)N1CCOCC1)n2-c1ccccc1OC	-12	-1	101	106
COc1cccc(/C=N/NC(=O)CSCc2ccccc2)c1O	-100	-65	102	105
Cn1c(NC(=O)c2ccccc2)nc2ccccc21	10	-7	101	102
CN=c1scc(-c2ccccc2OC)n1/N=C/c1ccc[nH]1	-20	16	103	106
CCN(CC)C(=O)c1cc2cccnc2n(Cc2ccccc2)c1=O	-4	2	103	105
CC1CC(C)(C)NC(=O)O1 (stereo not drawn)	-13	-22	101	103
CC(/C=N/Nc1nc2ccccc2[nH]1)c1ccccc1 (stereo not drawn)	2	-15	99	100
O=C(COc1ccc(Cl)cc1)Nc1c(F)c(F)c(F)c(F)c1F	.	-10	104	109
CC1=NC(O)(C23CC4CC(CC(C4)C2)C3)C(C)S1 (stereo not drawn)	-19	12	102	105
COc1ccccc1-n1cc(C(=O)c2ccccc2O)cc(C#N)c1=O	-20	96*	113	119
O=S(=O)(c1cccc(S(=O)(=O)N2CCOCC2)c1)N1CCOCC1	-21	-4	99	102
CCCCNC(=S)Nc1ccc(OC)cc1	4	2	101	99
O=C1NC(=O)C(CCc2ccncc2)(CCc2ccncc2)C(=O)N1C1CCCCC1	-52	-13	105	103

Individual results from the entries so far.
`Cn1c(NC(=O)c2ccccc2)nc2ccccc21` in Mtb MbtI inh = -7
`CCN(CC)C(=O)c1cc2cccnc2n(Cc2ccccc2)c1=O` in PV pol inh intensity = 105
`COc1cccc(/C=N/NC(=O)CSCc2ccccc2)c1O` in MenB inh = -100
`Cc1ccc(-c2cc(C(=O)N3CCC4(CC3)OCCO4)c3ccccc3n2)o1` in Mtb MbtI inh = -15
`CCN(CC)S(=O)(=O)c1ccc2c(c1)nc(SCC(=O)N1CCOCC1)n2-c1ccccc1OC` in Mtb MbtI inh = -1

(continued)
SMILES	MenB inh	Mtb MbtI inh	PV pol inh	PV pol inh intensity
O=C1CCCN2C(=N1)SC(=S)N2CN1CC2CC(C1)c1cccc(=O)n1C2 (stereo not drawn)	-41	25	102	101
COc1ccc2c(CC(=O)OCC(=O)N3c4ccccc4CC3C)coc2c1 (stereo not drawn)	-27	19	109	109
N#CCSc1nnc(CNc2ccc(Cl)cc2)n1-c1ccccc1	-46	1	102	100
COc1cc(NC(=O)COc2ccc(Cl)cc2)c(C(=O)O)cc1OC	-2	-4	100	100
COc1cc(/C=N/NC(=O)c2cccc(N3CCCC3=O)c2)ccc1O	4	2	100	100
CCn1cc(CCCC(=O)NC2CCC(C)CC2)c2ccccc21 (stereo not drawn)	10	-8	104	109
CN(C)S(=O)(=O)c1ccc(NC(=O)Cn2c(-c3ccccc3)noc2=O)cc1	-22	-3	104	102
Cc1cc(C(=O)CN2C(=O)C3CC=CCC3C2=O)c(C)n1CC1CCCO1 (stereo not drawn)	-11	4	102	104
Cc1ccc(CNC(=O)C2c3ccccc3C(=O)N(C)C2c2cccs2)o1 (stereo not drawn)	-1	3	100	101
COc1ccc(C2=NOC(C(=O)N3CCCC3)C2)cc1 (stereo not drawn)	-1	2	102	107
O=c1c2c([nH]n1-c1ccccc1)CCCC2	-9	10	103	100
Cn1cc(NC(=O)N2CCCCC2CCO)c2ccccc21 (stereo not drawn)	0	-8	99	106
CCc1ccc2c(CN3CCC(C(=O)OC)CC3)cc(=O)oc2c1	-5	11	102	98
Cc1cccc(-n2ncc3c(NCCCN4CCCC4=O)ncnc32)c1	13	122	99	103
CC(=O)Oc1c(Cc2ccccc2)c(=O)oc2ccccc12	-11	-23	101	104
COc1ccccc1NC(=O)COC(=O)c1ccccc1	0	17	101	97
CC(C(=O)c1ccccc1)[n+]1cccc(Br)c1 (stereo not drawn)	-1	1	102	103
C/C=C(\C(C)=N\O)c1ccccc1	-12	-11	104	102
O=C(O)COc1ccc(/C=C2/NC(=O)N(c3ccccc3)C2=O)cc1	5	2	101	100
CC(=O)Nc1ccc(S(=O)(=O)N2CC(C)OC(C)C2)cc1 (stereo not drawn)	-13	-4	101	104
CCOc1ccc2nc(N3CCCCC3)sc2c1	-10	-3	101	96
CCOc1ccccc1N(C)S(=O)(=O)c1ccc2c(c1)CCN2C(=O)CCC(=O)O	-9	11	100	105
O=c1[nH]nc(-c2nnc3n2CCCCC3)c2ccccc12	-32	-18	96	87
COc1ccc(C2=NS(=O)(=O)N(C)C(C(=O)NCC(C)C)=C2)cc1OC	-79	-19	106	101
CCn1c(SCC(=O)OC2CCCCC2)nnc1-c1ccc(OC)cc1	-14	-10	105	100
COc1ccc(/C=C2\C(=O)c3ccccc3OC2c2ccccc2)cc1 (stereo not drawn)	-37	-4	105	106
COC(=O)C(=Cc1ccc(-c2ccsc2C(=O)OC)o1)C(=O)OC	-31	-1	103	106
CC(C)(C)C(=O)Nc1ccc(Cc2ccncc2)cc1	-9	-15	103	105
COc1ccc(CNC(=O)C2(CC(=O)NC(C)(C)C)CCCC2)cc1	-6	-10	100	115
CCN(CC)c1ccc2oc(=O)c(C)nc2c1	-140	95*	75	178
O=C1NC2(CCCC2)NN1C(=O)c1ccncc1	2	-12	101	103
Cc1cc(C)c(C#N)c(SCCOc2ccccc2F)n1	-7	3	105	100
CC1CCCCN1CCCNC(=O)c1ccc2c(c1)NC(=O)CS2 (stereo not drawn)	-23	-6	103	106
CCOC(=O)c1cnn(-c2ccccc2)c1NC(=O)c1ccco1	-21	-9	103	101
Cc1cc([P+](=O)O)c(C)n1-c1ccc(Br)cc1	-2	-10	99	97
Cc1ccc(NC(=O)c2cc(C3CC3)[nH]n2)cc1	-45	-17	103	101
Cc1ccccc1NC(=S)N(CCCN1CCCC1)Cc1cccn1Cc1ccc(Cl)cc1	-12	-8	101	104
CC(C)c1ccc(NC(=O)CN(c2ccnn2C(C)C)S(=O)(=O)c2ccccc2)cc1	-28	9	101	101
Nc1nccnc1C(=O)OCC(=O)N(c1ccccc1)C1CCCCC1	1	102	103	111
Cc1cc(C)c2c(n1)sc1c(=O)n(NC(=O)Nc3ccccc3)c(C)nc12	7	-1	105	103

Overlap with the part before: 3 entries; new compounds follow.
SMILES	MenB inh	Mtb MbtI inh	PV pol inh	PV pol inh intensity
CC(C)c1ccc(NC(=O)CN(c2ccnn2C(C)C)S(=O)(=O)c2ccccc2)cc1	-28	9	101	101
Nc1nccnc1C(=O)OCC(=O)N(c1ccccc1)C1CCCCC1	1	102	103	111
Cc1cc(C)c2c(n1)sc1c(=O)n(NC(=O)Nc3ccccc3)c(C)nc12	7	-1	105	103
CN1C(=O)COc2ccc(N)cc21	-50	7	101	101
CC1=CC(C)(C)N(C(=O)c2ccccc2)c2ccc(OC(=O)c3ccccc3)cc21	2	.	105	109
CN1CC2=C(C1=O)C(c1ccccc1)NC(=O)N2 (stereo not drawn)	-16	-2	101	106
Cc1cc2c3c([nH]c2cc1S(=O)(=O)N(CCN1CCOCC1)Cc1ccco1)CCCC3=O	8	-11	100	103
O=C(NCc1nc(-c2ccccc2)no1)c1ccc(-c2ccccc2)cc1	5	16	100	101
CC(=O)Nc1cc(C(=O)NCCc2ccccc2)ccc1Sc1ccc(Cl)cc1	0	13	99	93
CCCN(CC(=O)Nc1ccc(F)c(F)c1F)CC(=O)Nc1c(C)n(C)n(-c2ccccc2)c1=O	11	-15	102	106
Cc1ccc2c(c1)N(C(=O)c1ccco1)C(C)(C)c1ssc(=S)c1-2	-30	-7	104	99
Cc1cc(C)n(CCc2nc(-c3ccc(C)c(C)c3)cs2)n1	-47	73*	82*	76*
COCCn1c(SCC(=O)NCc2ccccc2Cl)nc2cc(C(=O)OC)ccc2c1=O	2	4	99	103
Cc1ccc(C=C(C#N)C#N)c(C)c1	-46	-14	100	101
CCNc1cc(N2CCCCCC2)c2noc3c2c1C(=O)c1ccccc1-3	-4	1	75	193
COc1ccc(C(C(=O)NC2CCCC2)N(Cc2ccco2)C(=O)Cn2nc(C(F)(F)F)c3c2CCCC3)cc1 (stereo not drawn)	-11	-17	102	104
Cc1cccc(NC(=O)COC(=O)/C=C/c2ccc(C)o2)c1	-29	-2	102	108
O=C(/C=C/c1ccc2c(c1)OCO2)Nc1ccc(-n2nncc2-c2ccccc2)cc1	-20	7	103	104
O=c1oc2cc3occ(-c4ccccc4)c3cc2c2c1CCCC2	20	38	101	103

Entries of single compounds from above.
`COCCn1c(SCC(=O)NCc2ccccc2Cl)nc2cc(C(=O)OC)ccc2c1=O` is listed as MenB inh: 2; Mtb MbtI inh: 4; PV pol inh: 99; PV pol inh intensity: 103
`CC1=CC(C)(C)N(C(=O)c2ccccc2)c2ccc(OC(=O)c3ccccc3)cc21` is listed as MenB inh: 2; Mtb MbtI inh: .; PV pol inh: 105; PV pol inh intensity: 109
